AID504770: E. coli YBA685 growth inhibition, screen for V. cholerae RctB inhibitors. E. coli YBA685 rctB-dependent plasmid, OD600 growth, 3 h; stronger effect = lower value. z-score (concentration not given with the values). hit rate 0.27% among 130,000. AID 504770;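 active = z-score under -2 on both plates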;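 also: wells of about 30 µL received 100 nL stock; score is relative to mean and SD of the test wells; the first replicate is given; strong numbers were not always called active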
Ba CapD inh: CapD enzyme inhibition; purified CapD enzyme, fluorescence intensity read-out; stronger effect = lower value; some hits fall short of the stated cut; z-score (test concentration not listed); hit rate 0.23% among 140,000; AID 492967;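 active = z-score under -4 in either of two replicates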;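 also: stock transfer was 100 nL into about 40 µL; score is relative to mean and spread of the plate; one replicate is shown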
* hit, by the source's call; nt = no result given. Outcome played no part in choosing rows. About 0.39% of those tested had a hit in this group.

Below each SMILES – AID504770	Ba CapD inh
CCN(CC)c1ccc(N=Cc2cccs2)cc1
 : -0.05	-1.4
O=C(CCc1ccccc1)NNc1c(Cl)cncc1Cl
 : 0.75	0.095
O=C(N/N=C/c1ccc(N2CCOCC2)cc1)c1ccc(Cl)cc1
 : -0.05	nt
Cc1cc2nc3s/c(=C\c4cc(Cl)ccc4OCc4ccccc4)c(=O)n3c2cc1C
 : nt	-0.28
COc1cc2c(c(OC)c1OC)C(c1ccc(N(C)C)cc1)C1=C(CC(C)(C)CC1=O)N2 (stereo not given)
 : -0.5	6.3
CC1CCN(Cn2nc(-c3cccc(F)c3)n(-c3ccccc3)c2=S)CC1
 : nt	-0.45
CC(C)(C)c1[nH]nc2c1C(c1cc(Cl)cc(Cl)c1OC(=O)N1CCOCC1)C(C#N)=C(N)O2 (stereo not given)
 : nt	0.54
CCCCn1c(CNC(=O)c2cccc(OC)c2)nnc1SC(C)C(=O)Nc1sc2c(c1C(=O)OCC)CCC2 (stereo not given)
 : nt	0.045
O=C(O)CC1C(=O)N2CCNC2=C1C(=O)c1ccccc1 (stereo not given)
 : -0.05	nt
Cc1nnsc1C(=O)n1nccc1-c1cnn(-c2ccccc2)c1C
 : -0.15	0.33
Nc1ccc(S(=O)(=O)NC2=NCCCCC2)cc1
 : -0.5	-0.44
S=c1[nH]nc(COc2ccc3c(c2)CCCC3)o1
 : -0.6	-1.3
N#Cc1ccc(COC(=O)C2CC3C=CC2C3)cc1 (stereo not given)
 : -0.15	nt
CCc1ccc(C2C(C#N)=C(C)NC3=C2C(=O)CCC3)cc1 (stereo not given)
 : 1.1	0.29
Cc1nc2cc(Cl)ccc2c(=O)n1-c1cccnc1
 : nt	-0.05
CCOc1ccc(-c2noc(-c3nnn(-c4ccccc4C(F)(F)F)c3N)n2)cc1
 : 0.6	1.5
CCOC(=O)c1c(-c2cccs2)csc1NC(=O)COC(=O)c1ccc(-n2cnnn2)cc1
 : -0.6	nt
Cc1ccnc(SCC(=O)Nc2cccc(C(F)(F)F)c2)n1
 : 0	0.57
Cc1ccc(C(=O)n2cnnc2N)cc1
 : -0.85	-0.44
O=c1c2ccccc2nc2c3ccccc3c(N3CCCCCC3)nn12
 : 0.35	nt
CC(C)c1ccc(N2C(=O)C=CC2=O)cc1
 : -0.8	-0.22
CCS(=O)(=O)N1CCC(C(=O)NCCCN2CCCCC2)CC1
 : -0.2	nt
CCC(=O)N=c1sc2cc(NC(C)=O)ccc2n1CCOC
 : 0.05	nt
COc1ccccc1-n1cnc2cc(C(=O)NCc3ccccc3Cl)ccc21
 : nt	0.29
CCc1cccc(NC(=O)c2ccc3c(=O)n4c(nc3c2)CCCCC4)c1
 : 2.6	-1.4
CCCCN1C(=O)CN(C2CCCCC2)C(=O)C1c1ccc(OC)c(OC)c1 (stereo not given)
 : -0.2	-0.34
CCC(=O)Nc1cccc(-c2cn3cccnc3n2)c1
 : -1.1	0.14
COC(=O)CSc1nc2sc3c(c2c(=O)n1CCc1ccccc1)CCC3
 : nt	0.1
FC(F)(F)c1cccc(Sc2ncccc2-c2nc3ccccc3s2)c1
 : nt	-0.05
O=C(CCCn1c(=S)[nH]c2cc3c(cc2c1=O)OCO3)N1CCN(c2ccccc2F)CC1
 : -0.65	3.5
N#Cc1cc(C#N)c(SCC(=O)c2ccc(-c3ccccc3)cc2)nc1N
 : nt	0.67
O=C1C(Sc2ncn[nH]2)=C/C(=N/S(=O)(=O)c2cccs2)c2ccccc21
 : 0.45	3.3
C/C(=N\O)c1ccc(OC(=O)c2ccc(Br)o2)cc1
 : 0.25	-0.86
CSc1nsc(C)c1C#N
 : 0.35	-0.37
COC(=O)C1=C(O)/C(=C\c2cccs2)N=C1C
 : -0.6	14
CC(C)COC(=O)Nc1nnc(SCCOc2ccccc2)s1
 : 1.8	-0.51
O=C(CSCc1c(F)cccc1Cl)NCCSCc1ccco1
 : nt	-0.11
COc1cc(CN2CCC3(CC2)Nc2ccccc2-n2cccc23)cc(OC)c1OC
 : 0.2	nt
O=C(Nc1ccc(NC(=S)NC(=O)c2cc3ccccc3o2)cc1)c1ccco1
 : 0.25	-0.15
O=C(c1ccccc1)n1cc2c(n1)-c1ccccc1CS2
 : -0.05	2.2
N#Cc1ccc(C(=O)NC2CCCc3ccccc32)cc1 (stereo not given)
 : -0.85	nt
CCC(C)NC(=O)Nc1ccc(C)c(Cl)c1 (stereo not given)
 : 1.1	-0.49
Cc1cc(C)n(CCCNC(=O)CSc2nnc(C(F)(F)F)n2C)n1
 : 0.7	nt
Cc1oc(C(C)(C)C)cc1C(=O)Nc1ccc(N(C)C)cc1
 : 1.4	0.35
COc1ccc(CC(=O)OCCOc2ccccc2F)cc1
 : 0.7	0.24
CCn1c(SC(C)C(=O)NC(N)=O)nnc1-c1ccccc1 (stereo not given)
 : 0.7	nt
O=C(COC(=O)C(Cc1c[nH]c2ccccc12)NC(=O)c1ccco1)c1ccccc1 (stereo not given)
 : nt	-0.15
O=C(CN1C(=O)CN=C(c2ccccc2)c2cc(Br)ccc21)NNc1c2ccccc2nc2ccccc12
 : nt	-0.41
CN1CCC(N(C2CC2)S(=O)(=O)c2cccc(C(F)(F)F)c2)CC1
 : nt	-0.37
O=C(NCCC1=CCCCC1)c1ccc2c(Cl)c3c(nc2c1)CCC3
 : -0.8	-0.47
COc1cc(S(=O)(=O)N(CCc2ccccc2)Cc2cccs2)ccc1-n1cnnn1
 : -0.35	nt
Cc1cc(C)n(CC(O)Cn2c3ccccc3c3ccccc32)c(=O)n1 (stereo not given)
 : 0.05	0.64
COC(=O)C1=C(C)OC(N)=C(C#N)C1c1ccccc1OC (stereo not given)
 : nt	3.8
CCc1ccccc1NC(=O)c1cc2cccc(OC)c2oc1=O
 : -0.75	-0.76
CCS(=O)(=O)c1ccc(-c2csc(-c3ccccc3)n2)c(Cl)c1Cl
 : nt	0.32
CC(C)=CCCC12CCC(CO)(CO1)C(C)C2 (stereo not given)
 : -0.45	nt
COCc1cc(C)n(CC(N)=O)c(=O)c1C#N
 : 0.55	nt
O=C(CSc1nnc2scc(-c3ccccc3)n12)N1CCCCCC1
 : 2.7	-1.7
ClC1=C(/C=N/OCc2ccc(Cl)cc2Cl)CCc2ccccc21
 : nt	0.51
C/C(N)=C(/C#N)C(=O)CSc1n[nH]c(C(C)C)n1
 : -0.15	nt

The list continues:
Below each SMILES – AID504770	Ba CapD inh
S=C(Nc1cccc(Cl)c1)NC1CCSc2ccc(Cl)cc21 (stereo not given)
 : 0.75	3.4
C=CCN1C(=O)C(C(=O)N2CCOCC2)C2CC1(C)Oc1ccccc12 (stereo not given)
 : 0.15	0.46
O=C(COc1cccc2ccccc12)N1c2ccccc2CCc2ccccc21
 : 0.15	-0.28
COc1ccc(S(=O)(=O)Nc2cccc3cc(C(=O)N4CCOCC4)[nH]c23)cc1
 : nt	-0.34
CN[C@@H]1[C@@H](O[C@H]2O[C@H](CO)[C@@H](N)[C@H](O)[C@H]2O)O[C@H]2C[C@@H](N)[C@H](O[C@H]3[C@H](O)[C@@H](O)[C@H](N)C[C@@H]3N)O[C@@H]2[C@@H]1O
 : 1.1	nt
Nc1ccccc1C(=O)NC1CC1
 : 1.9	nt
FC(F)(F)c1ccc(Cn2cnc3ccccc32)cc1
 : -0.5	-0.22
CC(C)NC(=O)Cn1ncc2c3ccccc3n(C)c2c1=O
 : -1.1	29
CC1(C)C2([N+](=O)[O-])CN3CC1([N+](=O)[O-])CN(C2)C3c1ccc(O)cc1 (stereo not given)
 : nt	-0.2
Clc1ccc(C2=NNC(c3ccc4c(c3)OCO4)C2)cc1Cl (stereo not given)
 : 0.85	nt
Nc1c(C(=O)Nc2cccc(Cl)c2)sc2nc3c(c(-c4ccco4)c12)CCCC3
 : nt	-0.24
CCOC(=O)C1=C(C(=O)OCC)SC2(S1)C(C(=O)OCC)=C(C(=O)OCC)SC1=C2c2cc(OCC)ccc2N(C(=O)Cc2ccccc2)C1(C)C
 : nt	-0.17
O=C(CNC(=O)c1cccs1)c1ccc(F)cc1
 : -1.2	nt
Cc1cc(N)nn1C(=O)CSc1nc2c(sc(=S)n2CC2CCCO2)c(=O)n1-c1ccc(F)cc1 (stereo not given)
 : nt	-0.15
COc1ccccc1NC(=O)CSc1ccccn1
 : 0.4	0.1
CC(=O)n1cc(/C=c2/sc3nc4c(C)c(C)ccc4n3c2=O)c(-c2ccccc2)n1
 : 0.75	0.36
O=C(Nc1ccccc1)N1CC2CCCN2c2ccccc21 (stereo not given)
 : -1.2	-0.49
CCn1c(=NC(=O)CSCC(=O)N2CCN(c3ccccc3)CC2)sc2cc(F)ccc21
 : 1.2	0.28
O=C(N/N=C1\CC2CC=CC12)c1ccc(O)cc1 (stereo not given)
 : -0.1	nt
Cc1cc2c(SCC(=O)c3cccs3)ncnc2s1
 : -0.15	nt
COc1cc(/C=C2\SC(=O)N(CCN)C2=O)ccc1OC(F)F
 : 1.4	nt
O=C1CSC2(C(=O)Nc3ccccc32)N1c1cc(Cl)cc(Cl)c1 (stereo not given)
 : nt	0.36
COc1ccc(C2N(Cc3ccccc3)CCN2Cc2ccccc2)cc1O
 : nt	6
CCOC(=O)CC(N)c1cccs1 (stereo not given)
 : -1	0.7
Cc1cc(C(C)(C)C)cc(C)c1I
 : 0.1	0.22
CC(NC(=O)CSc1nnc(-c2cccc(F)c2)n1-c1ccccc1)c1ccccc1 (stereo not given)
 : 0.25	-0.15
COc1ccc(/C=C2\N=C(c3cc([N+](=O)[O-])ccc3Cl)OC2=O)cc1Br
 : nt	0.33
O=C(COc1cc(Cl)ccc1Cl)Nc1cccc2nsnc12
 : 1.8	nt
COC(=O)C1=C(NC(=O)c2ccc3c(c2)OCO3)CCS1
 : -0.15	0.21
O=C(OCCN1CCN(c2cc(C(F)(F)F)nc3c(F)cccc23)CC1)C(F)(F)F
 : nt	-0.6

New compounds follow.
smiles,AID504770,Ba CapD inh
O=C(COCc1cc(-c2ccc3c(c2)OCO3)on1)N1CCCC1,-2,0.54
COCc1cc(=O)oc2cc(NC(=O)C3CC3)ccc12,1.4,90
O=S(=O)(c1ccc(NC2CN3CCC2CC3)nc1)N1CCCC1 (stereo not given),-0.1,nt
CN(C)c1ccc(/C=C2\C(=O)NC(=O)N(c3cccc(Br)c3)C2=O)o1,nt,-2.4
C/C(Cc1ncn(-c2cc(C)on2)n1)=N\OC(=O)Nc1ccc(Cl)cc1,0.9,0.92
O=C(OCN1C(=O)c2ccccc2C1=O)C1CCN(c2ccc(C(F)(F)F)cn2)CC1,0,nt
Cc1ccc(C(=O)NN2C(C)CCCC2C)o1 (stereo not given),-0.15,nt
C(=C\c1ccccc1)/C=N/Nc1nn[nH]n1,-0.7,nt

7 structures out of the list, sorted by count of non-hydrogen atoms, lowest first.
smiles,AID504770,Ba CapD inh
Cc1ccc(C(=O)NN2C(C)CCCC2C)o1 (stereo not given),-0.15,nt
COCc1cc(=O)oc2cc(NC(=O)C3CC3)ccc12,1.4,90
COC(=O)C1=C(NC(=O)c2ccc3c(c2)OCO3)CCS1,-0.15,0.21
O=S(=O)(c1ccc(NC2CN3CCC2CC3)nc1)N1CCCC1 (stereo not given),-0.1,nt
O=C(COCc1cc(-c2ccc3c(c2)OCO3)on1)N1CCCC1,-2,0.54
O=C(OCCN1CCN(c2cc(C(F)(F)F)nc3c(F)cccc23)CC1)C(F)(F)F,nt,-0.6
O=C(OCN1C(=O)c2ccccc2C1=O)C1CCN(c2ccc(C(F)(F)F)cn2)CC1,0,nt

(further entries)
smiles,AID504770,Ba CapD inh
COc1cccc(C(=O)Nc2n[nH]c3ccccc23)c1,-0.8,-0.19
CCOC(=O)c1sc(NC(=O)/C=C/c2ccc(Cl)cc2)cc1C,-0.5,-0.59
CCC(=O)OCCNc1nc(-c2ccccc2)nc2ccccc12,-0.2,-0.05
CN(C)C(=O)c1c(N)no[n+]1[O-],-0.55,nt
O=C(COC(=O)/C=C/c1ccc(Br)o1)Nc1ccc(N2CCOCC2)cc1,0.1,nt
CCCCn1c(SCC#N)nc2ccccc2c1=O,0.2,nt
CN(C)c1cc(CSCc2ccc(Cl)cc2)nc(-c2ccccc2)n1,nt,0.8
CC1CC(C)(C)CC2(CC(=O)N(c3ccc(Cl)cc3)C2=O)C1 (stereo not given),2.1,-0.9
O=c1cc(-c2ccccc2)nc2scc(-c3ccc(Cl)cc3)n12,-0.8,-0.59
COc1cc2c(cc1OC)C1=C(C#N)CN(CCc3ccccc3)CN1CC2,0.35,0.22
Nc1nc(SCC(=O)Nc2ccc([N+](=O)[O-])cc2Cl)n[nH]1,nt,-1.5
COc1ccc(C(=O)SC2=NCCS2)cc1,-0.55,nt
Cc1cc(=O)oc2c3c(ccc12)O/C(=C\c1ccc(N(C)C)cc1)C3=O,nt,-0.26
CCc1ccc(-c2nc(CN3CCC(C(=O)O)CC3)c(C)o2)cc1,0.1,-0.1
O=C(Nc1ccc(Cl)c(Cl)c1)/C(=C/c1ccc2c(c1)OCO2)NC(=O)c1ccc(Br)cc1,nt,0.33
O=C(Nc1ccc(Br)cc1F)c1cc(S(=O)(=O)N2CCN(c3ccccc3)CC2)ccc1F,nt,1.5
O=C(CNCc1ccco1)Nc1ccccc1-n1cccc1,-0.35,nt
CCCn1nnc2sc3c(c2c1=O)CCC(C)C3 (stereo not given),0.1,0.21
Cc1nn2c3cc(N4CCOCC4)ccc3nc2c2ccccc12,-0.15,-0.81
Cn1nnnc1SCC(=O)Nc1ccc(C(=O)NCc2ccc3c(c2)OCO3)cc1,0.25,nt
COc1ccc(-c2onc3ccc(Cl)cc23)cc1,-0.75,0.42
O=C(Cn1ncc2ccsc2c1=O)NCCN1CCN(Cc2ccccc2)CC1,1.1,0.02
CN(C)C=N/C(=N\OCc1c(F)cccc1Cl)c1ccc(Cl)cc1,nt,-0.69
Cc1ccc(-c2csc(=NC(=O)C(C)C)n2-c2ccc(C)cc2)cc1,-0.4,-0.3
C(=N\N1CCOCC1)/c1cn(-c2ccccc2)nc1-c1ccccc1,-0.55,nt

Screens: PubChem, ICCB-Longwood Screening Facility, Harvard Medical School
